# VDR inhibitor = vitamin D3 receptor (human) inhibition; Potency, µM, inactives show max response, negative = inhibition, hits mostly inhibitors; VDR-SRC2-3 peptide fluorescence polarization, 2 h; AID 504847; actives 0.93% (n = 400,000); active means well fitted inhibition curve with a large enough effect; inconclusive means small, poorly fitted or top-dose-only effect, or another doubt; inactive means no such curve, though single readings can be large or run the other way; further: series mostly up to about 120 µM
# Target sequence (P11473 whole entry, looked up): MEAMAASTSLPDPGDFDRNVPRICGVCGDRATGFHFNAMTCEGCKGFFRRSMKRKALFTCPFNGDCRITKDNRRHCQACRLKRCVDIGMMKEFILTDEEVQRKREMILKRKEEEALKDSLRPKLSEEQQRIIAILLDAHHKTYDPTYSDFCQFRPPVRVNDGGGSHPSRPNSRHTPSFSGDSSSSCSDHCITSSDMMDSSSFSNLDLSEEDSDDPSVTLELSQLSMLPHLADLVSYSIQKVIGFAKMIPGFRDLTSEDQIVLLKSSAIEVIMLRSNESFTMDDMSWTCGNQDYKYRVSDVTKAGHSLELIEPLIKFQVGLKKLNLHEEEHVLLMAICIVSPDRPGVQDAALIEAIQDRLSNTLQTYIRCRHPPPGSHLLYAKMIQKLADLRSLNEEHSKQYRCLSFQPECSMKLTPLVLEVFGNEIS
#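 Reagent solutions, kept cold and dark, are dispensed first; compounds are then pinned in at 23 nl, plates briefly spun, and incubated 2 h at ambient temperature. Inhibition of VDR–SRC2-3 peptide binding is read by fluorescence polarization.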
# * marks the source's active call; other numbers are inactive results; u = inconclusive; & = joins results of further samples; [ ] = another dose, or the depositor's remark. On the % scale 0 is the no-effect control and ±100 the full control effect; potency means the concentration at half of the fitted maximal effect. This is a subset, so the mix of outcomes need not match the whole.
SMILES,VDR inhibitor
CN1CCN(C(CNC(=O)C(=O)Nc2ccccc2)c2ccc3c(c2)OCO3)CC1 (stereo not given),0%
O=C(O)c1ccccc1-c1ccccc1C(=O)NCc1ccco1,-2%
Cc1ccc(NC(=O)C2CCCN(c3ncnc4c3nc3n4CCCCC3)C2)cc1F (stereo not given),7%
C[C@@H]1C[C@H]2[C@@H]3CCC4=CC(=O)C=C[C@]4(C)[C@@]3(F)[C@@H](O)C[C@]2(C)[C@@]1(O)C(=O)COP(=O)(O)O,6%
O=C(CSc1ncc(S(=O)(=O)c2ccc(Cl)cc2)c(=O)[nH]1)Nc1cccc(C(F)(F)F)c1,u
O=C(CNC(=O)c1ccccc1)OCc1nc2ccccc2s1,1%
CCOc1ccc(NC(=O)CN2CCN(CC(=O)Nc3ccc(Cl)c(C(F)(F)F)c3)CC2)cc1,10%
O=C(Cn1cc(SCc2ccc(Br)cc2)c2ccccc21)N1CCCCC1,6%
Cc1cc2c([nH]c3ccccc32)c(C)n1,21%
Cc1ccc(Cn2c(SCC(=O)NCC3CCCO3)nc3ccsc3c2=O)cc1 (stereo not given),u
COc1cc2ccccc2cc1C(=O)NC1CCC(C)CC1 (stereo not given),-6%
O=C(O)CNC(=O)CCN1C(=O)c2ccccc2C1=O,19%
CCOC(=O)c1cc(C)sc1NC(=O)C(c1ccccc1)c1ccccc1,2%
CC(C)(C)c1ccc(-n2ncc3c2CCCC3NC(=O)c2csnn2)cc1 (stereo not given),8%
CCCN(CC(=O)Nc1cc(C)on1)CC(=O)Nc1ccccc1C,-6%
O=C1NC2(CCCCCC2)C(=O)N1Cc1ccccc1,12%
COc1ccc(CC(=O)NNC(=O)CSc2nnc(Cc3ccc(OC)cc3)n2-c2ccccc2)cc1,-7%
O=C(CSCc1ccccc1)Nc1cccc(C(=O)Nc2ccc(C(=O)O)cc2)c1,-1%
Cc1csc(=O)n1CCC(=O)OCC(=O)Nc1cc([N+](=O)[O-])ccc1Cl,-21%
Cc1cccc(OCc2nnc(SCC(=O)Nc3cccc(C(=O)N4CCOCC4)c3)n2C)c1,-4%
C=CCOc1ccccc1OC[C@H](O)CNC(C)C,3%
Cc1nc(CS(=O)(=O)c2ccccc2)cc(N2CCN(c3ccccc3F)CC2)n1,10%
CCOc1ccc(-n2cc(C(=O)NCCOC)c3cc(OC)c(OC)cc3c2=O)cc1,-11%
COc1ccc(F)cc1S(=O)(=O)NCC(c1ccc2c(c1)OCO2)N1CCN(C)CC1 (stereo not given),-4%
COC(/C=C/Nc1ccc(OC)cc1)=C(C#N)C#N,-10%
COc1ccc(-c2nn3c(C4CCCCC4)nnc3s2)cc1OC,u
CCCc1noc(-c2cccc([N+](=O)[O-])c2)n1,9%
CCCCN(Cc1ccccc1)C1CCN(Cc2ccccc2)CC1,-28%
COc1ccc(/C=C/C(=O)Nc2cccnc2Cl)cc1,-5%
Cc1ccc(S(=O)(=O)N2CCOC23CCN(C(=O)c2cc(Cl)ccc2Cl)CC3)cc1,-26%
O=C1C(Nc2ccc(O)cc2)=C/C(=N/S(=O)(=O)c2cccs2)c2ccccc21,-20%
CCC(=NCCc1c(C)[nH]c2ccc(OC(F)(F)F)cc12)C1=C(O)CC(c2ccccc2)CC1=O (stereo not given),-5%
O=c1c2c(-c3cccs3)csc2ncn1-c1ccc(Br)cc1,24%
CCN(CC)S(=O)(=O)c1cc(NC(=O)c2n[nH]c(=O)c3ccccc23)ccc1C,-11%
CC1(C)OC(=O)C(=NNc2ccccc2C(=O)O)C(=O)O1,32%[activator]
CC(C)c1ccc(NC(=O)CS(=O)(=O)c2cccc3nsnc23)cc1,5%
COc1ccc(NCc2nc3ccccc3n2CCOc2ccccc2C)cc1,-8%
CN(C)S(=O)(=O)c1ccc(C(=O)Nc2ccc(Cl)cc2)cc1,-13%
CC(C)(C)N(CC#CCC1(O)c2ccccc2-c2ccccc21)CCO,1%
Cc1cccc(C)c1NC(=O)COC(=O)c1cccc2c1C(=O)c1ccccc1C2=O,-6%
Cc1ccc2[nH]c(=O)c(CN(CCO)C(=O)N(C)C)cc2c1,1%
Cc1nnnn1/C(=C\c1ccccc1)C(=O)OCC(=O)Nc1ccc(Cl)cc1F,40µM*
Cc1ccc(S(=O)(=O)Nc2nc3n(n2)C(c2ccc(F)cc2)C=C(c2ccccc2)N3)cc1 (stereo not given),8%
Clc1cccc2c1Sc1ccccc1CC2N1CCNCC1 (stereo not given),-6%
Cc1ccc(N2C(=O)[C@@H]3C(C(=O)C(c4ccccc4)c4ccccc4)=NN[C@@H]3C2=O)cc1,-11%
COc1cccc(C(=O)c2cc3cc(Cl)ccc3[nH]2)c1,-14%
C=CCNC(=S)NNC(=O)Cn1c(-c2ccccc2)cc(=O)n2ncnc12,-11%
O=S(=O)(c1ccccc1Cl)N1CCCC1c1nc(-c2ccccc2Cl)no1 (stereo not given),12%
CC1CC(CC(C)C(=O)NC(=S)Nc2ccc(S(N)(=O)=O)cc2)C(=O)O1 (stereo not given),6%
CC(NC(=O)Cn1nc(C(=O)O)c2ccccc2c1=O)c1ccccc1 (stereo not given),-15%
COc1ccc2ncc(S(=O)(=O)c3ccccc3)c(N3CCC4(CC3)OCCO4)c2c1,-16%
Nc1c2c(nc3ccc(Br)cc13)N(c1ccccc1)CC2,-10%
c1ccc(CSc2nnc(-c3ccco3)n2Cc2ccco2)cc1,3%
COCCSc1nnc(NC(=O)COC)s1,5%
Cc1c(Cl)c([N+](=O)[O-])nn1CC(=O)NCC1CCCO1 (stereo not given),-4%
Cc1ccc(NC(=S)N2CCC(c3ccccc3)C2)c(Cl)c1 (stereo not given),15%
CC1(C)Cc2ccccc2C(=O)N1,4%
Cc1nn(C)c(C(=O)NNC(=S)NCc2ccco2)c1Cl,-2%
COc1ccc(-c2c(C)c3ccc(O)c(CN4CCCCC4)c3oc2=O)cc1OC,4%
O=C(Cc1n[nH]c(=O)c2ccccc12)N1CCN(S(=O)(=O)c2ccc(F)c(Cl)c2)CC1,-18%

# Grouped by structure, those above containing an NH in an aromatic ring
SMILES,VDR inhibitor
O=C(CSc1ncc(S(=O)(=O)c2ccc(Cl)cc2)c(=O)[nH]1)Nc1cccc(C(F)(F)F)c1,u
Cc1cc2c([nH]c3ccccc32)c(C)n1,21%
CCC(=NCCc1c(C)[nH]c2ccc(OC(F)(F)F)cc12)C1=C(O)CC(c2ccccc2)CC1=O (stereo not given),-5%
CCN(CC)S(=O)(=O)c1cc(NC(=O)c2n[nH]c(=O)c3ccccc23)ccc1C,-11%
Cc1ccc2[nH]c(=O)c(CN(CCO)C(=O)N(C)C)cc2c1,1%
COc1cccc(C(=O)c2cc3cc(Cl)ccc3[nH]2)c1,-14%
O=C(Cc1n[nH]c(=O)c2ccccc12)N1CCN(S(=O)(=O)c2ccc(F)c(Cl)c2)CC1,-18%

# Molecules listed so far that contain bromine, in the order listed:
SMILES,VDR inhibitor
O=C(Cn1cc(SCc2ccc(Br)cc2)c2ccccc21)N1CCCCC1,6%
O=c1c2c(-c3cccs3)csc2ncn1-c1ccc(Br)cc1,24%
Nc1c2c(nc3ccc(Br)cc13)N(c1ccccc1)CC2,-10%

# (further entries)
SMILES,VDR inhibitor
CCOC(=O)Nc1ccc2c(c1)N(C(=O)CN1CCN(C)CC1)c1ccccc1CC2,4%
Cc1ccsc1CN(C)C(=O)CN1C(=O)NC(c2ccccc2)(c2ccccc2)C1=O,11%
O=S(=O)(Nc1ccc(Br)cc1)c1cccc2nonc12,-9%
COc1ccc(-c2c(C#N)c(N)nc(Sc3ccc(Cl)cc3)c2C#N)cc1,7%
CN(CCCC1CCCC1)C(=O)CC1C(=O)NCCN1Cc1cccc(F)c1F (stereo not given),-3%
COc1ccc(/C=C2\SC(c3ccc(C)cc3)=NC2=O)cc1OC,u
CN(C)S(=O)(=O)c1ccc(SCC(=O)N2CC(=O)Nc3ccccc32)nc1,-9%
CCOc1ccccc1NC(=O)Cn1c2ncccc2c(=O)n1-c1ccc(C)c(C)c1,17%
COc1cccc(-c2c(-c3cc(OC)cc(OC)c3)n(C)c3ccc(Br)cc23)c1,-20%
Brc1ccccc1-c1nnc(CSc2nnc3sc4ccccc4n23)o1,-5%
CC(=O)C1=C(O)C(=O)N(Cc2ccco2)C1c1ccccc1F (stereo not given),12%
CC(=O)Nc1ccc(NC(=O)CN(C)S(=O)(=O)c2ccc3c(c2)CCCC(=O)N3)cc1,17%
COC(=O)C1=C(C(=O)OC)[C@@H]2N(C)c3ccc(OC)cc3[C@@]23C[C@@H](C(=O)OC)N(C(=O)c2ccc(Br)cc2)C3=N1,-22%
CCOc1ccc(NC(=O)CSc2nccn2C)cc1,0%
CCC(CC)NC(=O)CN1CCN(S(=O)(=O)c2ccc(Br)s2)CC1,-10%
CCCC[C@@H]1C=C(C(=O)O)[C@H](c2ccc(Cl)c(Cl)c2)N1S(=O)(=O)c1ccc(C)cc1,u
Cc1ccc(C(=O)CSc2nc(N)cc(=O)[nH]2)cc1C,14%
Cc1cccc(OCCC(=O)OCc2csc(CC(=O)Nc3ccccc3C)n2)c1,1%
O=c1[nH]c(=O)n(-c2ccccc2)c2c1C(C(F)(F)F)(C(F)(F)F)N=C(C1CCCCC1)N2,u
CCCc1ccc(S(=O)(=O)NCC2CCCN2CC)cc1 (stereo not given),5%
CCOC(=O)N1CCN(C(=O)CCNS(=O)(=O)c2ccccc2)CC1,4%
CC1CC(C)(C)NC(=S)N1CCCC(=O)Nc1ccc(F)cc1 (stereo not given),-22%
COc1ccc(-n2nc3c(c2NC(C)=O)CS(=O)(=O)C3)cc1,7%
COc1ccccc1-n1c(SCc2cc(=O)oc3cc(O)ccc23)nc2ccccc2c1=O,-2%
CSc1ccc(CCNC(=O)Cn2nc(C)n3c(cc4sccc43)c2=O)cc1,-6%
O=C(NNC(=O)C(c1ccccc1)c1ccccc1)c1ccccn1,-10%
Cc1ccc(S(=O)(=O)c2nnn3c2nc(NCc2ccc(F)cc2)c2sccc23)cc1,14%
O=C(COC(=O)c1cccs1)Nc1ccccc1Cl,-1%
CC(C)(C)n1cnnc1Sc1ccc([N+](=O)[O-])cn1,-18%
O=C1SC(SCc2ccccc2Cl)=N/C1=C\c1ccc(C(=O)O)cc1,u
O=C(Nc1cccc(F)c1)c1cccc2c1C(=O)N(C1CCCCC1)C2,10%&7%
CC(=O)N/C(=N/c1nc(C)cc(C)n1)Nc1ccc(C)cc1C,-11%
COc1ccc([N+](=O)[O-])c(S(=O)(=O)c2ccc(Cl)cc2)n1,32µM*
Cc1cc(C)cc(NC(=S)N2CCC(c3nc4ccccc4s3)CC2)c1,-5%
CCOC(=O)COc1ccc(/C=C2/SC(=Nc3ccccc3)N(Cc3cccnc3)C2=O)cc1OC,8%
Oc1c(N=NC(=S)Nc2ccccc2F)c2ccccc2n1Cc1ccc(F)cc1,-3%
CC(=O)Nc1ccc2oc(-c3ccccc3)nc2c1,-11%
N#Cc1ccc(OCC(=O)Nc2ccccc2NS(=O)(=O)c2cccs2)cc1,-13%
O=C(Nc1ccc(OC(F)(F)F)cc1)c1ccc2nccnc2c1,32%[activator]
COc1ccccc1NC(=O)CC(C)n1nc(C)cc1C (stereo not given),3%
CN(Cc1c(F)cccc1Cl)C(=O)CNC(=O)c1cccs1,-10%
O=C(c1cnccn1)N1CCC2(CCCN(c3ccc(-c4ccccc4)cc3)C2)CC1,u
O=C(CSc1nc2ccccc2n1CC(=O)NCc1ccccc1)NCc1ccco1,-19%
CCN(c1ccc(C(=O)CSc2nnc(C3CC3)n2C2CC2)cc1)S(C)(=O)=O,u
CCOC(=O)[C@@H]1[C@H]2COc3cc(OC)ccc3[C@H]2N2C(=O)N(c3ccc(F)cc3)C(=O)[C@]12C,-7%
Cc1nc(SCC(=O)Nc2nnc(C(C)C)s2)n[nH]1,1%
OC[C@@H]1[C@@H](c2ccc(F)cc2)C(c2ccc(F)cc2)=NN1c1ccccc1,u
CCOC(=O)C1=C(C)NC(C)=C(C(=O)OCC)C1C(=O)O,6%
O=C(Nc1ccccc1F)C1CCCN(S(=O)(=O)c2cccc3cccnc23)C1 (stereo not given),-12%
O=C1/C(=C/c2ccc([N+](=O)[O-])cc2)Oc2cc(O)ccc21,-5%
C=C(C(=O)OC)C(NC(=O)OC)c1ccccc1 (stereo not given),2%
COc1ccc(C(=O)Oc2cc(C(=S)N3CCOCC3)ccc2OC)cc1,21%
Cc1nnsc1C(=O)Nc1cccc(Cl)c1,6%
Cc1ccc(CNC(=O)CCC(=O)Nc2nnc(C)s2)cc1,-14%
CC(=O)Nc1ccc(S(=O)(=O)NCc2nc(-c3ccccc3C)no2)cc1,7%
CC1CCc2c(sc3c2C2=NS(=O)(=O)CCN2C=N3)C1 (stereo not given),19%
Cc1cccc(CCNc2ncnc3onc(-c4ccc(Cl)cc4)c23)c1,-9%
COc1ccc(OC)c(C2CC(=O)N3CN(c4ccccc4F)CSC3=C2C#N)c1 (stereo not given),35µM*
COC(=O)c1c(-c2ccccc2)csc1N,6%
CCOC(=O)OC(C)OC(=O)[C@@H]1N2C(=O)[C@@H](NC(=O)[C@H](N)c3ccccc3)[C@H]2SC1(C)C (stereo not given in full),0%

# (cont.)
SMILES,VDR inhibitor
CN(C)c1ccc(C(=O)OCC#CCSc2nnc(-c3cccc4ccccc34)o2)cc1,-23%
Cc1ccc(-c2cn(-c3ccccc3)c(=S)[nH]2)cc1C,-14%
O=S(=O)(c1ccccc1)N1CCN(C(=S)Nc2ccccc2)CC1,6%
CC#CCC(CC#CC)c1nc2ccccc2c(=O)n1N,-5%
COCCn1c(Sc2ccccc2)nc2c1c(=O)[nH]c(=O)n2C,2%
Cc1ccc(NC(=O)c2cc(S(=O)(=O)N3CCc4ccccc43)cn2C)c(Cl)c1,9%
O=C(CSc1nc2ncccc2[nH]1)Nc1ccc2c(c1)OCO2,-9%
CCOC(=O)c1oc2ccccc2c1CN1CCN(C(=O)c2ccccc2)CC1,10%
